KCNQ2 inh: KCNQ2 potassium channel inhibitors, primary screen, cell-based, CHO-K1, FluxOR thallium flux, B-score (AID 2156); 20 min; hits give low values; only compounds with negative scores are shown here; some inactives read as strong as hits; B-score at 10 µM; hit rate 1.1% among 310,000;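 active = fluorescence ratio B-score at most minus 3 library SDs, with starting brightness B-score within 2 library SDs, cut at about -5.5 in these data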
Target sequence (O88943 whole entry, looked up): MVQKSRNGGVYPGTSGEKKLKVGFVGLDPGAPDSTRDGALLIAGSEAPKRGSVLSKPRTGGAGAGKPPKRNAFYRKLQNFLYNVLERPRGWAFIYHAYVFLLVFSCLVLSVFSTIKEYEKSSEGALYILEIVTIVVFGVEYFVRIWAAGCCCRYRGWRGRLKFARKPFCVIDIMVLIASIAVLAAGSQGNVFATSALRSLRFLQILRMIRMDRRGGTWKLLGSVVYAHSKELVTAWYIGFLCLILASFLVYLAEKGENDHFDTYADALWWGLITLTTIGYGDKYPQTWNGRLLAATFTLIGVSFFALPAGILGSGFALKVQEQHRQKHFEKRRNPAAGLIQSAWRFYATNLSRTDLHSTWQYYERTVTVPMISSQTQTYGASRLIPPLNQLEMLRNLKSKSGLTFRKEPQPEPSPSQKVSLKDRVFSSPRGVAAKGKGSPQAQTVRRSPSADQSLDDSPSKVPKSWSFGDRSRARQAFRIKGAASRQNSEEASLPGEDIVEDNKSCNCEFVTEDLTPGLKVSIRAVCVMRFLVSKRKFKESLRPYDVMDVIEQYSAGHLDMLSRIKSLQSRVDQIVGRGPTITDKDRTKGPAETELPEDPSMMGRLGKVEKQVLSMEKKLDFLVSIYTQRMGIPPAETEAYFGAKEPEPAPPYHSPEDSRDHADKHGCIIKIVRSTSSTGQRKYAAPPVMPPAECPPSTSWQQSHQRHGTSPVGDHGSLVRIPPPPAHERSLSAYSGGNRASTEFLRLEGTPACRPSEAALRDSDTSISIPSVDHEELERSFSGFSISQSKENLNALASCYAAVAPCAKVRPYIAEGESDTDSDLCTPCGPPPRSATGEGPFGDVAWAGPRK
KCNQ2 inh baseline: recorded beside KCNQ2 inh, whose call it bears; B-score; measured here: initial fluorescence intensity artifact check;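 brightness before thallium and not channel activity; 0 = typical well and far values either way flag optical interference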
* hit, by the source's call; i = inactive. A portion of the library (hit frequency here may not be typical).

SMILES	KCNQ2 inh	KCNQ2 inh baseline
C[C@]1(C(=O)NCCc2c[nH]c3ccccc23)C=C[C@@H](Cc2ccccc2)N1C(=O)c1ccccc1	i	0.9
NNC(=S)Nc1ccc(Cl)cc1	i	2
COc1ccccc1-n1c(CNC(=O)c2ccco2)nnc1SCC(=O)Nc1nccs1	i	1.1
CCc1cc(CNC(=O)C2CCC(=O)N(Cc3ccc(Cl)cc3)C2)on1 (stereo not drawn)	i	0.5
Cc1ccnc(NS(=O)(=O)c2ccc(N)cc2)n1	i	0.47
N#CCCn1c(Cl)nc2ccccc21	i	1.6
O=C(CN1C(=O)S/C(=C\C=C\c2ccccc2)C1=O)N1CCOCC1	i	-1.6
CCCN1Cc2cccc(C(=O)NC(CC(=O)OCC)c3ccc(OCC)c(OC)c3)c2C1=O (stereo not drawn)	i	-1.1
COc1ccc(-c2cc(NCCc3ccncc3)n3ncnc3n2)cc1	i	-0.05
C=CCNS(=O)(=O)c1cc2c3c(c1)CCN3C(=O)CC2	i	-1.8
COc1ccc(-n2nc(C(=O)NCC(=O)NCCCN3CC(C)CC(C)C3)c3ccccc3c2=O)cc1OC (stereo not drawn)	i	-0.75
O=C(COc1ccc([N+](=O)[O-])cc1)Nc1ccc(CN2CCOCC2)cc1	i	-0.26
CCCCn1c(N)c(N(CC(C)C)C(=O)CCNC(=O)c2ccc(Cl)cc2)c(=O)[nH]c1=O	i	-0.23
CCCC12CN(C(=O)c3ccc(OC)cc3)CC(C)(CN(C(=O)c3ccc(OC)cc3)C1)C2=O	i	0.02
CC(C(=O)OCC(=O)Nc1ccc(S(=O)(=O)N2CCCCC2)cc1)N1C(=O)c2ccccc2C1=O (stereo not drawn)	i	0.12
Cc1ccc2cc3c(NS(=O)(=O)c4cccc5nonc45)nn(CC(C)C)c3nc2c1	i	-1.4
COc1cc2c(cc1OC)C(C(=O)NCc1ccco1)C(c1cccs1)N(C)C2=O (stereo not drawn)	i	1.6
COc1ccc(Nc2ncc3c(n2)CC(c2ccc(C)cc2)CC3=O)cc1 (stereo not drawn)	i	-0.08
Cc1ccc(/C=N/Nc2ccc(C(=O)O)cc2)o1	i	1.3
CCOC(=O)C(N)CSC1CC(=O)N(c2ccc(OC)cc2)C1=O (stereo not drawn)	i	-0.1
C=CCOc1nc2c(c(=O)n(C)c(=O)n2C)n1Cc1ccc(Cl)cc1Cl	i	-0.82
COc1ccc(C2NC(=O)c3ccccc3N2)cc1OC (stereo not drawn)	i	-0.53
Cc1ccc(C2CC(=O)NC(SCCC(C)C)=C2C#N)cc1 (stereo not drawn)	i	-0.02
COc1ccc(S(=O)(=O)Nc2cc3c4c(c2)CCN4C(=O)CC3)cc1OC	i	0.64
O=C(NC(=S)NCCC1=CCCCC1)c1cccnc1	i	1.3
Cc1ccc(CN2CCN(/N=C/c3ccc(O)c(O)c3)CC2)cc1	i	1.1
O=C(COC(=O)Cc1ccc(S(=O)(=O)N2CCOCC2)s1)Nc1ccc2c(c1)OCO2	i	1.9
CCc1ccc(NC(=O)CSc2nc(CSc3ccc(C)cc3)cc(=O)[nH]2)cc1	i	-0.1
Cc1ccc(S(=O)(=O)NCCN2CCOCC2)s1	i	1.9
Cc1cccc(NC(=O)C2CCN(C(=O)c3ccc(F)cc3)CC2)n1	i	0.33
CCOc1ccc(NS(=O)(=O)c2ccc(C(=O)NCC3(N4CCCCC4)CCCCC3)cc2)cc1	i	-0.98
CCN1C(=O)/C(=C\c2ccncc2)SC1=Nc1ccc(C)c(C)c1	i	-0.75
COC(=O)c1ccccc1NC(=O)/C=N/O	i	2.8
Cc1ccc(/C=N/NC(=O)CN(Cc2ccccc2)S(=O)(=O)c2ccc3c(c2)OCCO3)cc1	i	-1.1
CCC(C)Oc1nc2ccccc2nc1NS(=O)(=O)c1ccccc1 (stereo not drawn)	i	-0.72
Nc1cccc(Nc2ncnc3ccccc23)c1	i	-0.01
O=S(=O)(c1cnccc1N1CCN(/N=C/c2ccccc2)CC1)N1CCCCC1	i	1.3
O=C1Cc2cc(NS(=O)(=O)c3ccc(Cl)cc3)cc3c2N1CCC3	i	-0.99
CC(C)NC(=O)CN1CCN(Cc2nc(-c3cccs3)no2)CC1	i	0.04
Cc1ccc(S(=O)(=O)[N-]c2nc3ccccc3nc2-[n+]2cc(C)cc(C)c2)cc1	i	-0.62
Cc1ccc2c(c1)c1c(n2CC(O)CN2CCC(C)CC2)CCCC1 (stereo not drawn)	i	-1.7
CCc1cc(-c2n[nH]c(C)c2-c2nc3ccccc3n2C)c(O)c(CN2CCN(C)CC2)c1O	i	-2.4
COc1cccc(CNS(=O)(=O)c2cc(Br)cc3c2N(C(C)=O)C(C)C3)c1 (stereo not drawn)	i	-1.6
Cc1ccccc1Nc1nc(CSc2nnc(-c3ccoc3C)n2C)cs1	i	-1.1
COc1ccc(-c2coc3c(CN4CCCCC4)c(O)c(CN4CCCCC4)c(O)c3c2=O)cc1	i	-0.13
CC(C)[C@H](NC(=O)c1ccccc1)C(=O)OCC(=O)NCCC1=CCCCC1	i	-0.13
COC(=O)c1[nH]c2c(c1C)C(=O)CC(c1cccc(OC)c1)C2 (stereo not drawn)	i	-0.35
Cc1ccc(CCNS(=O)(=O)c2c(C)nc3sccn3c2=O)cc1	i	-0.36
CCC(C(=O)NCc1ccco1)N(C(=O)CNS(=O)(=O)c1ccccc1)c1ccc(F)cc1 (stereo not drawn)	i	-3
COc1ccccc1N1C(=O)C2C(C(=O)c3ccccc3)=NN(c3ccccc3)C2C1=O (stereo not drawn)	i	0.27
CCOC(=O)Nc1n[nH]c(NC(=O)OCC)c1[N+](=O)[O-]	i	0.81
O=C(N/N=C(\c1ccccc1)c1cccnc1)c1cc(O)ccc1O	i	-2
CC(C)N(Cc1nc(-c2ccccc2)no1)C(=O)CSc1ccccc1	i	0.93
CC12CCC(C/C1=N/NC(=O)COc1ccccc1Cl)C2(C)C (stereo not drawn)	i	-0.25
CC(C)N(Cc1nc(-c2ccc3c(c2)OCO3)no1)Cc1nccn1C	i	0.64
CCOc1c(O)ccc(C2NC(=O)N(C)C(C)=C2C(=O)OC)c1[N+](=O)[O-] (stereo not drawn)	i	3.1
CCOC(=O)C1=C(CC)Nc2ccccc2N/C1=N\S(=O)(=O)c1ccc2ccccc2c1	i	0.6
COc1ccc(CCC(=O)N2CCCc3ccccc32)cc1	i	0.52
COc1ccc(CCC(=O)NCCc2nc3ccccc3[nH]2)cc1	i	-0.08
COc1cc(CSC)nc(-c2ccccc2)n1	i	0.88

5 entries from above in a different format:
KCNQ2 inh,KCNQ2 inh baseline,SMILES
i,0.81,CCOC(=O)Nc1n[nH]c(NC(=O)OCC)c1[N+](=O)[O-]
i,-2,O=C(N/N=C(\c1ccccc1)c1cccnc1)c1cc(O)ccc1O
i,0.93,CC(C)N(Cc1nc(-c2ccccc2)no1)C(=O)CSc1ccccc1
i,-0.25,CC12CCC(C/C1=N/NC(=O)COc1ccccc1Cl)C2(C)C (stereo not drawn)
i,0.64,CC(C)N(Cc1nc(-c2ccc3c(c2)OCO3)no1)Cc1nccn1C

Five entries drawn at random from the list so far:
SMILES	KCNQ2 inh	KCNQ2 inh baseline
O=C(N/N=C(\c1ccccc1)c1cccnc1)c1cc(O)ccc1O	i	-2
CCOC(=O)C1=C(CC)Nc2ccccc2N/C1=N\S(=O)(=O)c1ccc2ccccc2c1	i	0.6
CC(C)N(Cc1nc(-c2ccccc2)no1)C(=O)CSc1ccccc1	i	0.93
CCC(C(=O)NCc1ccco1)N(C(=O)CNS(=O)(=O)c1ccccc1)c1ccc(F)cc1 (stereo not drawn)	i	-3
COc1ccc(CCC(=O)N2CCCc3ccccc32)cc1	i	0.52

Additional results.
SMILES	KCNQ2 inh	KCNQ2 inh baseline
C=CCNC(=O)c1ccc(C)c(Br)c1	i	3
CCCC(C(=O)NC(C)(C)C)N(Cc1ccccc1Cl)C(=O)c1snc(C(N)=O)c1N (stereo not drawn)	i	0.17
COc1ccc(F)cc1C(=O)C1CCCN(Cc2cccn2-c2cccnc2)C1 (stereo not drawn)	i	2.1
C/C(=N\NC(=O)Cc1csc(N2CCOCC2)n1)c1ccc(Cl)c(Cl)c1	i	-0.31
COc1ccc(-c2csc(-c3cccs3)n2)cc1OC	i	0.25
OCCSc1nc(N2CCOCC2)nc(N2CCOCC2)n1	i	-0.14
COC(=O)CCN(C1CCCCC1)S(=O)(=O)c1ccc(S(=O)(=O)NC2CCCCC2)cc1	i	0.41
O=[N+]([O-])c1cc(S(=O)(=O)NCCCN2CCOCC2)ccc1Cl	i	-0.41
O=C(/C=C/c1ccc(Cl)c(Cl)c1)n1cccn1	i	0.17
COCCNC(=O)C(=O)N/N=C(\C)CC(=O)Nc1ccc(Cl)cc1Cl	i	-0.48
Cc1ccc(C(CNC(=O)c2ccc(Br)o2)N2CCN(C)CC2)cc1 (stereo not drawn)	i	0.42
CCc1ccccc1NC(=O)c1ccc(-n2c(C)ccc2C)cc1	i	0.03
Cc1sc(NC(=O)c2ccco2)c(C(c2cccnc2)N2CCN(c3ccc(F)cc3)CC2)c1C (stereo not drawn)	-10*	0.25*
CCCCn1c(N)c(N(CC(C)C)C(=O)C2CCN(S(=O)(=O)c3ccc(OCC)cc3)CC2)c(=O)[nH]c1=O	i	-0.02
CC(CN1CCN(Cc2ccccc2)CC1)c1ccccc1 (stereo not drawn)	i	-1.2
CN(C)C(=O)N1CCC(C(=O)NCc2ccc3c(c2)OCO3)CC1	i	0.2
CCC1Sc2ccc(S(=O)(=O)CCC(=O)NCc3ccco3)cc2NC1=O (stereo not drawn)	i	-1.2
Cc1ccc(OCc2nc3c4c(ncn3n2)-c2ccccc2CC42CCCC2)cc1	i	-0.24
O=C(Nc1ccc(Cl)cc1Cl)c1cccc(N2C(=O)C=CC2=O)c1	i	0.35
Cc1[nH]ccc(=O)c1OCc1c(F)cccc1Cl	i	0.34
COc1ccc(C2/C(=C(\O)c3ccc4c(c3)CC(C)O4)C(=O)C(=O)N2Cc2cccnc2)c(OC)c1 (stereo not drawn)	i	-0.11
O=C(COC(=O)c1ccc(CNS(=O)(=O)c2ccc(F)c(Cl)c2)cc1)NCC1CCCCC1	i	0.29
Cc1c(Cl)cccc1NC(=O)CSc1nccn1C	i	-0.04
CCN(CC1COc2ccccc2O1)S(=O)(=O)c1ccc(C)cc1 (stereo not drawn)	i	0.81

Part of the list above in a different format.
| canonical_smiles | KCNQ2 inh | KCNQ2 inh baseline |
| --- | --- | --- |
| CCC(C(=O)NCc1ccco1)N(C(=O)CNS(=O)(=O)c1ccccc1)c1ccc(F)cc1 (stereo not drawn) | i | -3 |
| Cc1ccc(CN2CCN(/N=C/c3ccc(O)c(O)c3)CC2)cc1 | i | 1.1 |

Further structures follow:
SMILES	KCNQ2 inh	KCNQ2 inh baseline
CCN1C(=O)N(S(=O)(=O)C(F)(F)F)[C@@H](c2ccccc2)C(C(=O)OC)=C1C	i	0.19
CC(C)c1c(O)nc(SCCN2CCOCC2)[nH]c1=O	i	0.79
CC(=O)OC1=C(O)C(=O)c2ccccc2C1=O	i	2.8
O=C1C=C(Nc2ccc(Cl)cc2)CC(c2ccccc2)C1 (stereo not drawn)	i	1.3
CC1=C(OC(=O)C(C)(C)C)C(C)(C)C(c2ccccc2)OC1=O (stereo not drawn)	i	-1.2
Cc1cc(C)n2c(Nc3ccc4c(c3)OCCO4)c(-c3ccc(C)o3)nc2n1	i	0.28
O=C(NCCSCc1ccc(Cl)cc1)c1cccs1	i	-0.56
CCC(C(=O)NCC1CCCO1)N(C(=O)CNS(=O)(=O)c1ccccc1)c1ccc(F)cc1 (stereo not drawn)	i	2.5
Cc1ccc(S(=O)(=O)NCCNC(=O)c2ccc(C)nc2)cc1	i	-0.15
COc1ccccc1CCNC(=O)CN1C(=O)c2ccccc2S1(=O)=O	i	0.46
CCS(=O)(=O)c1ccc2oc(Nc3ccc(OC)cc3)nc2c1	i	-0.37
CC1(C)CC(=O)C2=C(C1)N(Cc1ccco1)C(=O)NC2(C(F)(F)F)C(F)(F)F	i	-1.5
COc1cccc(-n2c(SCC(N)=O)nc3c([nH]c4ccccc43)c2=O)c1	i	-0.03
CC(C)NC(=O)C1CCN(C2CCN(C(=O)c3ccc4cccc(F)c4n3)CC2)CC1	i	0.69
C=CCOc1ccc(CNc2nn[nH]n2)cc1	i	0.73
Cc1ccccc1N1CCN(C2CCCN(C(=O)CCN3CCCCC3=O)C2)CC1 (stereo not drawn)	i	1.2
COc1ccc(C(=O)COC(=O)c2cc(S(=O)(=O)NCc3ccccc3)ccc2O)cc1	i	-0.67
CC(C)(C)N(Cc1ccccc1)C(=O)CSc1nc2ccccc2c(=O)[nH]1	i	0.66
CC1CN(C(=O)CS(=O)(=O)Cc2ccc(Cl)cc2)CC(C)O1 (stereo not drawn)	i	-0.31
COc1ccccc1-n1cc(C(=O)NCC(=O)N2CCN(c3ccccc3)CC2)c2ccccc2c1=O	i	1.1
Cc1cccc(Nc2ncc3c(n2)CC(c2ccco2)CC3=O)c1 (stereo not drawn)	i	0.22
COc1ccc(CNC(=S)N/N=C(/C)c2ccccc2)cc1	i	0.6
CCC(C)NC(=O)CS(=O)(=O)Cc1nc(-c2cccc(OC)c2)oc1C (stereo not drawn)	i	-4.8
CN(Cc1ccccc1)C(=O)C(C(=O)c1ccc(F)cc1)n1cc(Cl)ccc1=O (stereo not drawn)	i	0.69
CCOC(=O)C1=C(C)N=c2s/c(=C\c3ccc(OCC(=O)O)cc3)c(=O)n2C1c1ccc(Cl)cc1 (stereo not drawn)	i	-0.38
NC(CO)(CO)COCc1ccccc1	i	-0.86
O=C(CSc1ccc(-c2cccnc2)nn1)N1CCCCC1	i	0.44
CCC(C)NC(=O)c1ccc(NS(=O)(=O)c2ccc3[nH]c(=O)[nH]c3c2)cc1 (stereo not drawn)	i	0.39
Cn1c(SCC(=O)NCc2cccs2)nnc1-c1ccc(S(=O)(=O)N2CCCC2)cc1	i	-0.84

High-throughput results: PubChem BioAssay, Johns Hopkins Ion Channel Center
